Measles inh: inhibitors of measles virus growth in cells, primary screen, measles RdRp inhibitor project, cell-based, single point, HTS. infected Vero cells, GFP fluorescence, 64 h; stronger effect = lower value. z-score (concentration not given with the values). 33,000 tested, 0.1% active;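 active means z-score under -3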;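 further: score is relative to mean and SD of the compound wells of a plate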
Numbers without * were called inactive. A portion of the library; count on the stated rates, not on these rows.

SMILES | Measles inh
O=C(CCC1Nc2c3ccccc3nc(=S)n2C1=O)N1CC=C(c2ccccc2)CC1 (configuration not stated) | -0.24
CC(C)c1ccc(NC(=O)C2C3C=CC4(O3)C2C(=O)N(Cc2ccc(F)cc2)C4C(=O)NC2CCCCC2C)cc1 (configuration not stated) | 0.14
O=C1c2cccc3cccc(c23)C(=O)N1c1ccc(F)c([N+](=O)[O-])c1 | -0.41
O=[N+]([O-])c1c(Nc2ccccc2C(F)(F)F)ccc2nonc12 | 0.4
C=CCn1c(SCc2ccccc2)nc2sc3c(c2c1=O)CCCC3 | -0.07
CCC1CCCCN1CCCNC(=O)c1cc(=O)[nH]c2ccc(S(=O)(=O)N3CCCC3)cc12 (configuration not stated) | -0.68
O=c1c2ccccc2nc(C=Cc2c[nH]c3ccccc23)n1-c1ccccc1[N+](=O)[O-] | 0.32
CC(=O)c1c(C)oc2ccc(N(C(=O)c3ccc(Cl)cc3)S(=O)(=O)c3ccccc3)cc12 | -0.35
CCCCSc1nnc2c(n1)OC(C=Cc1ccccc1[N+](=O)[O-])Nc1ccccc1-2 (configuration not stated) | -0.55
Cc1ccc(-c2nn(C)c(=O)c3ccccc23)cc1CNS(=O)(=O)c1ccc(Cl)cc1 | -0.57
CCOC(=O)CSc1nc(-c2cccs2)cc(-c2ccc(Cl)cc2)c1C#N | -0.01
Cc1ccccc1NC(=O)CCC(=O)Nc1ccccc1C | -0.64
CCOC(=O)c1cnc2c(ccc3ccccc32)c1Nc1ccc(N(C)C)cc1 | -0.32
Cc1ccc(CNC(=O)CCSCc2cccc(Cl)c2)cc1 | -0.79
CN(C)CCNC(=O)C1c2ccccc2C(=O)N(C)C1c1cn(C)c2ccccc12 (configuration not stated) | -0.17
CCN(CC)CCNC(=O)c1c(O)c2cccc3c2n(c1=O)CC3 | 1.65
C=CCOC(=O)C1=C(C)NC2=C(C(=O)CCC2)C1c1cccc(Br)c1 (configuration not stated) | -0.53
O=C(CSc1nnc(-c2ccco2)o1)N1CCCCC1 | 0.91
CCSc1nnc2c(n1)OC(c1ccc(C(=O)OC)cc1)N(C(=O)CC)c1ccccc1-2 (configuration not stated) | -0.17
Cn1c2c(c(=O)n(C)c1=O)C(c1ccc([N+](=O)[O-])cc1)C1=C(N2)c2ccccc2C1=O (configuration not stated) | -0.01
CN(Cc1ccccc1)c1nc(-c2cccs2)cc(C(F)(F)F)n1 | -0.92
CC(C)C(NC(=O)COc1cccc(Br)c1)C(=O)O (configuration not stated) | 1.63
NS(=O)(=O)c1ccc(NC(=O)c2ccc(COc3ccccc3Cl)o2)cc1 | 0.06
O=C(Nc1ccccc1N1CCOCC1)c1cc2ccccc2o1 | 0.02

14 neighbouring records out of the list so far, quoted:
SMILES | Measles inh
CCOC(=O)CSc1nc(-c2cccs2)cc(-c2ccc(Cl)cc2)c1C#N | -0.01
Cc1ccccc1NC(=O)CCC(=O)Nc1ccccc1C | -0.64
CCOC(=O)c1cnc2c(ccc3ccccc32)c1Nc1ccc(N(C)C)cc1 | -0.32
Cc1ccc(CNC(=O)CCSCc2cccc(Cl)c2)cc1 | -0.79
CN(C)CCNC(=O)C1c2ccccc2C(=O)N(C)C1c1cn(C)c2ccccc12 (configuration not stated) | -0.17
CCN(CC)CCNC(=O)c1c(O)c2cccc3c2n(c1=O)CC3 | 1.65
C=CCOC(=O)C1=C(C)NC2=C(C(=O)CCC2)C1c1cccc(Br)c1 (configuration not stated) | -0.53
O=C(CSc1nnc(-c2ccco2)o1)N1CCCCC1 | 0.91
CCSc1nnc2c(n1)OC(c1ccc(C(=O)OC)cc1)N(C(=O)CC)c1ccccc1-2 (configuration not stated) | -0.17
Cn1c2c(c(=O)n(C)c1=O)C(c1ccc([N+](=O)[O-])cc1)C1=C(N2)c2ccccc2C1=O (configuration not stated) | -0.01
CN(Cc1ccccc1)c1nc(-c2cccs2)cc(C(F)(F)F)n1 | -0.92
CC(C)C(NC(=O)COc1cccc(Br)c1)C(=O)O (configuration not stated) | 1.63
NS(=O)(=O)c1ccc(NC(=O)c2ccc(COc3ccccc3Cl)o2)cc1 | 0.06
O=C(Nc1ccccc1N1CCOCC1)c1cc2ccccc2o1 | 0.02

Additional entries follow.
SMILES | Measles inh
COc1ccc(NC(=O)CSc2nnc(-c3cccc(N)c3)n2C)cc1 | 1.39
CCOC(=O)c1c(NC(=O)COc2ccc(F)cc2)sc2c1CCCCC2 | 0.88
COc1ccc(C(=O)N=C2NC(=O)C(C)S2)cc1 (configuration not stated) | -0.21
CC1(C)CC2CC(C)(CN2C(=O)c2cc(-c3ccc(Br)cc3)on2)C1 (configuration not stated) | 1.63
Cc1cccc(C)c1NC(=O)CN1C(=O)c2ccc([N+](=O)[O-])cc2C1=O | 0.14
CCOC(=O)c1c(NC(=O)COc2ccc(Cl)cc2C)sc(C)c1C | -0.39
Cc1ccc(C2CC(c3ccccc3F)n3nnnc3N2)cc1 (configuration not stated) | -0.44
Cc1ccc(CN2C(=O)CCC2C(=O)NC2CCCCC2)cc1 (configuration not stated) | 0.66
COc1cc(C(=O)c2ccccc2)c([N+](=O)[O-])cc1OC | -3.04*
Cn1c2ccccc2c2c(C(=O)NCC3CCCO3)cn(C3CCCCC3)c(=O)c21 (configuration not stated) | 0.39
CCN(Cc1ccccc1)C(=O)C1c2ccccc2C(=O)N2CCc3cc(OC)c(OC)cc3C12 (configuration not stated) | 0.99
CCOC(=O)c1ccc2nc(NS(=O)(=O)c3ccc(C)cc3)sc2c1 | -0.89
COc1ccc(-c2cc(C(=O)Nc3ccc(C)cc3)no2)cc1OC | -0.87
O=C(CN1N=C(c2ccc(Cl)cc2)CCC1=O)NC1CCCCC1 | -0.43
CSc1c(C(=O)NCc2ccccc2)ccc2c1C(=O)c1ccccc1C2=O | 1.95
CC(=O)C(C)(CCC(=O)O)CCC(=O)O | -0.02
NC(=O)c1cc2cc(Br)ccc2oc1=Nc1cc(C(F)(F)F)ccc1Cl | -0.54
CCN(CC)C(=O)Cn1cnc2sc(C(=O)Nc3ccccc3C(F)(F)F)c(C)c2c1=O | 0.75
O=C(NCc1ccc(Cl)cc1)C(=O)N1CCCC1 | 0.66
CCN(CC)C(=O)c1cc2c(=O)n3ccccc3nc2s1 | -0.78
Cc1cccc(-n2ncc3c(Nc4ccc(C)c(Cl)c4)ncnc32)c1 | -0.32
O=C1C(Cc2ccccc2)N=C2c3ccccc3N=C(SCc3ccccc3F)N12 (configuration not stated) | -0.23
COCCN1C(=O)c2ccccc2C(C(=O)NCc2ccccn2)C1c1c[nH]c2ccccc12 (configuration not stated) | -0.46
CN(C)c1ccc(C2Nc3cc(C(C)(C)C)cc(C(C)(C)C)c3O2)cc1 (configuration not stated) | 0.69
Cc1ccc(S(=O)(=O)NC2=NCN(C)CN2)cc1[N+](=O)[O-] | -0.77
COc1cc(OC)c(-c2nc(-c3ccccc3)c(-c3cccs3)[nH]2)cc1OC | -0.58
Cc1ccc(CSC2=NCCN2C(=O)c2ccc(C)cc2)cc1 | 0.85
COc1cccc(NC(=O)C2CC(=O)N=C(N)S2)c1 (configuration not stated) | -0.27
COC(=O)c1nnc(N2CCN(C)CC2)c2ccccc12 | -0.67
COC(=O)c1sc(N2C(=O)C(=O)/C(=C(/O)c3ccc(Cl)cc3)C2c2ccc(OC)cc2)nc1C (configuration not stated) | -0.12
Cc1c(C(=O)NC(C)(C)C)sc2nc(-c3ccccc3)cn12 | -1.17
FC(F)(F)c1cc(-c2cccs2)nc(NCc2cccnc2)n1 | 0.57
O=C1CCCCCN1CO | 2.13
CC(C)c1ccc(NC(=O)C(C)N(c2ccccc2)S(C)(=O)=O)cc1 (configuration not stated) | -0.66
O=C(Cc1ccc(-n2c(=S)[nH]c3ccccc3c2=O)cc1)NC1CCCC1 | 1.25
COC(=O)c1cc(NC(=O)Cc2cccs2)cc(C(=O)OC)c1 | -0.8
Cc1ccc(S(=O)(=O)N(C)CC(=O)Nc2ccc(S(N)(=O)=O)cc2)cc1 | 0.49
CC(C)(C)c1ccc(C(=O)Nc2ccc(-c3nc4ncccc4o3)cc2)cc1 | 0.18
c1ccc2c(CN3CCN(C4C5CC6CC(C5)CC4C6)CC3)c[nH]c2c1 (configuration not stated) | -0.49
O=C(Cc1c(C(=O)O)[nH]c2ccc(Cl)cc12)Nc1cccc(Cl)c1 | 0.8
O=C(Cn1cnc2ccccc2c1=O)NCCC(=O)N1CCOCC1 | 1.59
CCOc1ccc(NC2=C(Cl)C(=O)N(c3ccccc3Cl)C2=O)cc1 | 1.03
O=C(NCc1ccccn1)c1cc2c(=O)[nH]c3ccccc3c2s1 | -0.15
CCOC(=O)c1ccc(N2C(=O)CC(N3CCN(CC=Cc4ccccc4)CC3)C2=O)cc1 (configuration not stated) | -1.17
CCC(C)NC(=O)c1nn2c(C(F)(F)F)cc(-c3ccco3)nc2c1Br (configuration not stated) | -0.17
CN(C)C1=C(Nc2cccc(I)c2)C(=O)c2ccccc2C1=O | 0.37
CC(C)C(=O)NCCSc1c(-c2ccc(Cl)cc2)[nH]c2ccccc12 | -0.5
Cc1ccc(C2=NN(C(=O)C3CC3)C(O)(C(F)(F)F)C2)cc1 (configuration not stated) | -0.05
O=C(Nc1cccc2c1C(=O)c1ccccc1C2=O)c1ccccc1O | -0.09
CCOc1ccc(-n2c(=O)c3c(C)c(C)sc3n(CC(=O)NCCc3ccccc3)c2=O)cc1 | -0.35
Cc1ccc2[nH]c3c(N4CCOCC4)ncnc3c2c1 | -0.78
CCCn1c2ccccc2c2nnc(SCC(=O)c3ccccc3)nc21 | 0.18
CCc1ccc(OCCNc2cc(N3CCCCC3)ccc2[N+](=O)[O-])cc1 | -0.29
Cc1c(CC(C)C)c(=O)oc2cc(OCc3ccccc3)ccc12 | -0.76
Nc1c(-c2ccccc2)cnc2c(-c3ccc(Cl)cc3)cnn12 | 0.45
COc1cc2c(cc1OC)C(COc1ccccc1OC)N(C(=O)c1ccc([N+](=O)[O-])cc1)CC2 (configuration not stated) | 0.15
CC1(C)Cc2c(ccc3ccccc23)C(Cc2ccccc2)N1 (configuration not stated) | -1.97
O=[N+]([O-])c1ccc(N2CCN(CCO)CC2)cc1SCCO | -0.15
COc1ccc(-n2c(SC(C)C)nc3c([nH]c4ccccc43)c2=O)cc1 | -0.39
CC(C)c1ccc(C2/C(=C(\O)c3ccccc3)C(=O)C(=O)N2CCCN(C)C)cc1 (configuration not stated) | -0.86

Other entries follow.
SMILES | Measles inh
CC(=O)N1CCc2cc(S(=O)(=O)N3CCCCC3C)ccc21 (configuration not stated) | 0.15
CC1(C)CC(=O)c2cc(C(=O)NC(C)(C)C)c(=O)n(-c3ccc(Cl)cc3)c2C1 | 0.25
Cc1ccc(S(=O)(=O)N(Cc2ccccc2)c2ccccc2)cc1 | -0.84
O=C(NCCN1CCOCC1)C1c2ccccc2C(=O)N2CCc3ccccc3C12 (configuration not stated) | -0.82
Cc1cc(Cl)ccc1OCC(=O)Nc1ccc(S(=O)(=O)Nc2ncccn2)cc1 | -0.01
Cc1cc(=O)n2ccc(CN3CCOCC3)c(O)c2n1 | -0.19
Cc1cccc(Cn2c(SCCN3CCOCC3)nc3c2c(=O)[nH]c(=O)n3C)c1 | -0.13
O=C(c1ccc2c(=O)n(Cc3ccc(Cl)cc3)c(=S)[nH]c2c1)N(CCO)Cc1ccccc1 | -0.39
COc1ccc(-n2nc3ccc(NC(=O)c4cccc(OCCC(C)C)c4)cc3n2)cc1 | -0.37
COc1ccc(C2CC(=O)C3=C(C2)Nc2ccccc2N(C(=O)c2cc(OC)c(OC)c(OC)c2)C3c2cccs2)cc1 (configuration not stated) | 0.21
CCSc1nnc2c(n1)OC(c1ccccc1Cl)Nc1ccccc1-2 (configuration not stated) | -0.7
CCOC(=O)c1cnc2c(OC)cccc2c1NC1CCCCC1 | 0.21
Cc1ccc(C)c(N2C(=O)NC3CC2(C)Oc2ccc(Br)cc23)c1 (configuration not stated) | 0.02
COc1ccc(C2CC(=O)C3=C(C2)Nc2ccccc2N(C(=O)C(F)(F)F)C3c2ccccc2Cl)cc1 (configuration not stated) | 0.82
CCOc1ccc(-n2c(SCC(=O)N3CCC(C)CC3)nc3c(c2=O)SCC3)cc1 | 1.39
Cc1cc(OCCCCCn2ccnc2)cc(C)c1Cl | 2.16
CC(=O)Nc1ccc(Nc2nc(-c3c(C)nc4sccn34)cs2)cc1 | -0.01
CCOC(=O)C1CCN(C(=O)CCc2nc(-c3ccccc3F)no2)CC1 | -0.55
O=c1c2cc(F)ccc2[nH]c(=S)n1Cc1ccc2c(c1)OCO2 | 1.82
CCN(CC)c1ncnc2c1[nH]c1ccc(C)cc12 | -1.08
CC(C)COC(=O)Oc1c(Cl)cc2oc(=O)sc2c1[N+](=O)[O-] | -0.27
C=CCOc1ccc(C=Nc2ccc(Br)cc2)c(O)c1 | -0.64
Cc1cccc(Nc2ncc([N+](=O)[O-])c(Nc3cccc(C)c3)n2)c1 | -0.71
COc1nc(NS(=O)(=O)c2ccc(C)cc2)nc(C)c1Br | 2.93
CCCOc1ccc2oc(=O)c3c(c2c1)CCCN3C(=O)CN1CCC(C(=O)OCC)CC1 | 0.56
CCc1ccc(OCC(=O)Nc2ccc3oc(-c4ccncc4)nc3c2)cc1 | -0.55
COc1cccc(NC(=O)c2ccc(NCCC3=CCCCC3)c([N+](=O)[O-])c2)c1 | 0.05
CC=CCOC(=O)C1=C(C)NC(=O)NC1c1cc(Cl)c(O)c(OC)c1 (configuration not stated) | -0.51
Cc1cccc(OCc2nc(-c3ccc(Br)cc3)no2)c1C | 0.09
O=C(Oc1cccc2ccccc12)C(Cc1ccccc1)N1C(=O)c2ccccc2C1=O (configuration not stated) | -0.44
Cc1ccc(N=CC=C2OC(C)(C)C(C)(C)O2)cc1 | -0.32
O=C(O)c1ccccc1S(=O)CCO (configuration not stated) | 0.75
CCC(C)NC(=O)Cn1cnc2sc(C)cc2c1=O (configuration not stated) | 0.72
CCOC(=O)CCc1c(C)c(C#N)c2nc3ccccc3n2c1NC1CCCCC1 | -0.84
CCN(CC)C(=O)c1c(NC(=O)c2ccccc2C)sc2c1CCCCC2 | 0.73
Cc1ccc(N=Cc2c(O)cc(C)c(Cl)c2C)cc1 | -0.45

Compound activity (PubChem)
